TAR Tat displ – HIV-1 TAR-Tat binding disruption. HIV-1 TAR RNA, Tat peptide displacement FRET; stronger effect = higher value. z-score (concentration not given with the values). hit rate 0.6% among 100,000. AID 1259389;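 note: score is relative to mean and SD of negative controls; some compounds called inactive have numbers as strong as hits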
CDC25B CDK2 inh – human CDC25B-CDK2/CyclinA binding inhibition; HTRF CDC25B-CDK2/CyclinA binding, anti-His/anti-Flag; stronger effect = higher value; AID 1259370; z-score (no concentration beside the values); hit rate 0.72% among 94,000;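 note: score is relative to mean and SD of negative controls; strong numbers were not always called active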
Numbers without * were called inactive.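 Rule for the calls: active = z-score from 3 up in half or more of its runs; inactive = the rest.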

For CC(C)NC(=O)C1CCC(Cn2c(=O)c3sccc3n(CC(=O)N3CCCC3)c2=O)CC1 (configuration not stated) the results were TAR Tat displ 0.61.
Screening Cc1ccc2c(C(=O)CN(C)C)c(C)[nH]c2c1 returned TAR Tat displ 2.1 and CDC25B CDK2 inh -2.1.
Screening O=C(CCCC1=NS(=O)(=O)c2ccccc2N1)Nc1ccc(F)cc1 returned TAR Tat displ -0.74.
`Cc1csc(SCCCCCCC(=O)O)n1` gave TAR Tat displ 1.3 and CDC25B CDK2 inh -1.2.
`CC(=O)NNc1ncnc2c1sc1ncccc12` gave CDC25B CDK2 inh -1.
Screening CC1CCCN(C(=O)Cn2c(=O)oc3cc(S(=O)(=O)N4CCCCC4)ccc32)C1 (configuration not stated) returned TAR Tat displ 0.43 and CDC25B CDK2 inh 0.95.
For CC(C)Cn1c(=O)[nH]c2ccccc2c1=O the results were TAR Tat displ -0.53 and CDC25B CDK2 inh -0.95.
`CCC(C(=O)NC1CCC(C)CC1)n1sc2ccccc2c1=O` (configuration not stated) gave TAR Tat displ 0.76 and CDC25B CDK2 inh -1.3.
Cc1cccc(NS(=O)(=O)c2ccc(N3CCCCS3(=O)=O)cc2)c1 was read as TAR Tat displ 0.34.
CC(=O)Nc1ccc(S(=O)(=O)N2CCSC2C(=O)O)cc1 (configuration not stated) was read as CDC25B CDK2 inh -1.6.
Screening Cc1cc(NS(=O)(=O)c2c(C(=O)N3CCCC3)c(C)n(C)c2C)ccc1Br returned TAR Tat displ 0.13.
For Cc1cc(C2(c3ccc(N)c(C)c3)CCCCC2)ccc1N the results were TAR Tat displ 1.6 and CDC25B CDK2 inh -2.
Cn1ncc2c(N3CCOCC3)nc(Nc3ccccc3)nc21 was read as TAR Tat displ 0.67.
Screening CN(C)C(=O)N1CCN(S(=O)(=O)c2ccc(Cl)cc2)CC1 returned TAR Tat displ 0.22 and CDC25B CDK2 inh 0.22.
Screening C=CCn1c(SCC(=O)O)nnc1-c1ccccc1 returned TAR Tat displ 2.2 and CDC25B CDK2 inh 0.29.
For Cc1noc(/C=C/c2cccs2)c1S(=O)(=O)N1CCC(C(=O)O)CC1 the results were CDC25B CDK2 inh -2.1.
For O=C(NCCN1CCc2ccccc2C1)c1noc2c1CCCCC2 the results were TAR Tat displ 0.2.
Screening CCc1nn2c(=O)cc(COc3ccc(C)cc3)nc2s1 returned TAR Tat displ 1.2 and CDC25B CDK2 inh -0.84.
`CCCCCCN1C(=O)C(O)=C(C(C)=O)C1c1ccc2c(c1)OCO2` (configuration not stated) gave CDC25B CDK2 inh -1.4.
Screening COc1ccc(-c2nnc3ccc(SCc4cccc(F)c4)nn23)cc1 returned CDC25B CDK2 inh -1.4.
Cc1cccc2nc(CSc3nnnn3-c3ccccc3)cn12 was read as TAR Tat displ 0.38 and CDC25B CDK2 inh -0.57.
`Cc1nc2scc(C)n2c(=O)c1S(=O)(=O)Nc1ccc(N2CCOCC2)cc1` gave TAR Tat displ -0.46 and CDC25B CDK2 inh -0.97.
Screening CCc1ccc(NS(=O)(=O)c2ccc(N)c(S(N)(=O)=O)c2)cc1 returned TAR Tat displ 3 and CDC25B CDK2 inh -1.8.
Screening CCCCn1c(SCc2cc(=O)n3ccccc3n2)nc2ccsc2c1=O returned CDC25B CDK2 inh 0.27.
Screening CCOC(=O)N1CCN(Cc2cn3c(-c4ccc(Br)cc4)nnc3s2)CC1 returned TAR Tat displ 1.3 and CDC25B CDK2 inh -1.6.
For Cc1nc2c3ccccc3nc(N3CCN(c4ccccc4)CC3)n2n1 the results were CDC25B CDK2 inh -1.9.
COCC(C)NC(=O)C1=CC(c2cc(OC)ccc2OC)=NS(=O)(=O)N1C (configuration not stated) was read as TAR Tat displ 0.67 and CDC25B CDK2 inh -1.9.
For Cc1cc(C)n2nc(COc3ccccc3)nc2n1 the results were TAR Tat displ 1.3 and CDC25B CDK2 inh 1.8.
O=C(Nc1nc(-c2ccc(F)cc2)ns1)c1ccc(Br)cc1 was read as TAR Tat displ 0.42 and CDC25B CDK2 inh -3.
Screening COc1ccc(C2CC(=O)NC3=C2C(=O)CC(c2ccc(F)cc2)C3)cc1 (configuration not stated) returned TAR Tat displ 1.8 and CDC25B CDK2 inh -0.26.

A run of entries from the list above, for reference:
For CC(C)NC(=O)C1CCC(Cn2c(=O)c3sccc3n(CC(=O)N3CCCC3)c2=O)CC1 (configuration not stated) the results were TAR Tat displ 0.61.
Screening Cc1ccc2c(C(=O)CN(C)C)c(C)[nH]c2c1 returned TAR Tat displ 2.1 and CDC25B CDK2 inh -2.1.
Screening O=C(CCCC1=NS(=O)(=O)c2ccccc2N1)Nc1ccc(F)cc1 returned TAR Tat displ -0.74.
`Cc1csc(SCCCCCCC(=O)O)n1` gave TAR Tat displ 1.3 and CDC25B CDK2 inh -1.2.

Going on with the list.
For CCCN1CCN(CCCN2C(=O)c3ccc(-c4ccco4)n3CC2(C)C(=O)NC2CCCC2)CC1 (configuration not stated) the results were TAR Tat displ -0.55.
Oc1cccc(-c2nc(N3CCOCC3)c3oc4ncccc4c3n2)c1 was read as TAR Tat displ 2.1.
CCN(CC)CCNc1nc(Nc2cccc(Cl)c2)c2cnn(C)c2n1 was read as TAR Tat displ 0.82.
O=c1c2cc3c(cc2nc2sc(Nc4ccccc4F)nn12)OCO3 was read as TAR Tat displ -1.7 and CDC25B CDK2 inh -2.7.
`COC(=O)c1sc2cccc(F)c2c1S(=O)(=O)NCc1cccs1` gave TAR Tat displ 0.28.
For Cc1nn(C(C)C(=O)NC2CC2)c(=O)c2cc3sccc3n12 (configuration not stated) the results were TAR Tat displ -1.1 and CDC25B CDK2 inh -2.4.
Screening Cc1cccc(-c2nc3c4ccccc4nc(NCc4cccnc4)n3n2)c1 returned TAR Tat displ 0.28 and CDC25B CDK2 inh -2.9.
Screening Cc1ccc(-n2c(C)c(C)c3c2ncn2nc(-c4ccc(N(C)C)cc4)nc32)cc1C returned TAR Tat displ 0.83 and CDC25B CDK2 inh -1.1.
`Fc1cccc(-c2nn3cnnc3s2)c1` gave TAR Tat displ 1.4 and CDC25B CDK2 inh -1.1.
Brc1ccc2c(c1)nc(N1CCNCC1)c1cccn12 was read as TAR Tat displ 1.7 and CDC25B CDK2 inh -0.73.

Overlap with the part before: 4 compounds, followed by the next part.
Screening Cc1cccc(-c2nc3c4ccccc4nc(NCc4cccnc4)n3n2)c1 returned TAR Tat displ 0.28 and CDC25B CDK2 inh -2.9.
Screening Cc1ccc(-n2c(C)c(C)c3c2ncn2nc(-c4ccc(N(C)C)cc4)nc32)cc1C returned TAR Tat displ 0.83 and CDC25B CDK2 inh -1.1.
`Fc1cccc(-c2nn3cnnc3s2)c1` gave TAR Tat displ 1.4 and CDC25B CDK2 inh -1.1.
Brc1ccc2c(c1)nc(N1CCNCC1)c1cccn12 was read as TAR Tat displ 1.7 and CDC25B CDK2 inh -0.73.
`CN1C(C(=O)N2CCc3ccccc3C2)=CC(c2ccco2)=NS1(=O)=O` gave TAR Tat displ -5.2 and CDC25B CDK2 inh -1.4.
Screening CC(C)N(Cc1nc(-c2ccc(Cl)cc2)no1)S(=O)(=O)c1ccccc1 returned TAR Tat displ 1.3 and CDC25B CDK2 inh 1.8.
For O=C(CN1C(=O)COc2ccc(Cl)cc21)N1CCCCC1 the results were TAR Tat displ 1.5 and CDC25B CDK2 inh -1.4.
`Cc1ccccc1OCC(=O)OCc1cc(=O)n2ccsc2n1` gave TAR Tat displ -0.05.
`Cn1c(=O)c2c(SCC(=O)N3CCOCC3)nc(-c3ccco3)nc2n(C)c1=O` gave CDC25B CDK2 inh -2.1.
Screening O=C1CC(c2cccc(F)c2)C2=C(CCCC2=O)N1 (configuration not stated) returned TAR Tat displ 3.7 and CDC25B CDK2 inh 0.52.
`O=C(c1cn(-c2cccc(Cl)c2)nn1)N1CCCC1` gave TAR Tat displ 0.03.
For CCc1nn(CC(=O)NCCCOC)c(=O)c2cc3sc(C)cc3n12 the results were CDC25B CDK2 inh -1.7.
For CCc1n(CC)c2ccccc2[n+]1CC(O)COc1ccc(OC)cc1 (configuration not stated) the results were TAR Tat displ 2.6 and CDC25B CDK2 inh -0.86.
Screening CCOC(=O)C1=C(C)NC(C)=C(C(=O)OCC)C1c1ccc2c(c1)OCO2 returned CDC25B CDK2 inh 1.3.
`COC(=O)c1ccc(NC2OC(=O)c3c2ccc(OC)c3OC)cc1` (configuration not stated) gave CDC25B CDK2 inh -0.63.
Screening CN1CCN(CCNC(=O)C2CCN(c3nc4cccnc4s3)CC2)CC1 returned TAR Tat displ 0.18.
Screening Cc1ccccc1-c1noc(CSc2nnc(-c3ccncc3)n2C)n1 returned TAR Tat displ -1.3 and CDC25B CDK2 inh -0.9.
For COC(=O)c1sc(-c2ccc(Cl)cc2)cc1NC(=O)c1ccccc1C(=O)O the results were CDC25B CDK2 inh -0.1.
`N#Cc1ccc(-c2ccccc2F)cc1` gave CDC25B CDK2 inh -1.5.
Screening Cc1ccc(-c2c(C)noc2C)cc1S(=O)(=O)N1CCN(c2ccc(Cl)cc2)CC1 returned TAR Tat displ -1.1.
Screening CCOC(=O)CSc1nc2c(sc(=S)n2Cc2ccco2)c(=O)n1-c1ccccc1 returned TAR Tat displ 0.98.
O=S1(=O)CCC(S(=O)(=O)NC2CCCC2)C1 (configuration not stated) was read as TAR Tat displ -0.08 and CDC25B CDK2 inh -1.7.
COCC(C)Nc1ncnc2c1cnn2-c1ccc(Cl)cc1 (configuration not stated) was read as TAR Tat displ 3.2.
Screening CC(C)(C)NC(=O)c1cc2c(ccc3ccccc32)oc1=O returned CDC25B CDK2 inh -3.
NNC(=O)C12CCC(CC1)C2 was read as CDC25B CDK2 inh -1.8.
`N#CCSC1=CC(=O)CC(c2ccccc2)S1` (configuration not stated) gave CDC25B CDK2 inh 0.29.
Cc1ccccc1CSc1nnc(Cn2c(=O)sc3ccccc32)n1C was read as CDC25B CDK2 inh -0.89.
`CCN1CCC2(CC1)OC(=O)C(C)=C2C(=O)NCc1ccccn1` gave TAR Tat displ 1.
`CCN1CCN(CCNC(=O)c2cnc3scc(C)n3c2=O)CC1` gave TAR Tat displ -0.23.
Screening CSc1nc(N)c2ncn([C@@H]3O[C@H](COP(=O)(O)OP(=O)(O)O)[C@H](O)C3O)c2n1 (some centres not stated) returned CDC25B CDK2 inh -0.1.
COc1ccccc1N1C(=O)CC(Nc2ccc(N(C)C)cc2)C1=O (configuration not stated) was read as TAR Tat displ -1.5 and CDC25B CDK2 inh -3.6.
Screening CCOc1ccc(-c2nnc(SCCOc3ccccc3)o2)cc1 returned TAR Tat displ 0.75 and CDC25B CDK2 inh -0.4.
For Cc1ncc(-c2ccc(C)c(S(=O)(=O)Nc3cccc4c3CCCC4)c2)o1 the results were TAR Tat displ 1.1.
CCCCC(CC)CNS(=O)(=O)c1ccc2c(c1)n(C)c(=O)c(=O)n2C (configuration not stated) was read as TAR Tat displ 1.6 and CDC25B CDK2 inh 0.35.
`COc1ccccc1C1CC(=O)C2=C(C1)NC(C)=C(C(=O)OC1CCCC1)C2c1ccsc1` (configuration not stated) gave TAR Tat displ 1.1 and CDC25B CDK2 inh 0.02.
Screening CCc1nnc2c(NCCCN3CCN(c4cccc(C)c4)C(C)C3)nc3ccccc3n12 (configuration not stated) returned TAR Tat displ -0.76.
For COc1ccc(Cl)cc1NS(=O)(=O)c1ccc2c(c1)NC(=O)CC(=O)N2 the results were TAR Tat displ 0.48 and CDC25B CDK2 inh -1.
O=C(Nc1ccc(F)cc1F)c1cccn2c(-c3ccc(F)cc3)nnc12 was read as TAR Tat displ 0.9.
Screening COC(=O)c1cc(NC(=O)c2cc(-c3cccc(OC)c3)nc3ccccc23)cc(C(=O)OC)c1 returned CDC25B CDK2 inh -2.5.
For O=C1c2ccccc2C(=O)N1CN(CCCn1ccnc1)CN1C(=O)c2ccccc2C1=O the results were CDC25B CDK2 inh -2.
Screening CCOC(=O)c1sc2nc(C)nc(Nc3ccc(Cl)cc3)c2c1C returned CDC25B CDK2 inh -2.3.
For COc1cc(Cl)c(C)cc1Nc1nc2ccc(C)cc2n2nnnc12 the results were TAR Tat displ -2.1.
C=C(C)[C@H]1COc2cc3oc(=O)ccc3cc2O1 was read as TAR Tat displ 1.1.
Screening COc1cc2c(cc1OC)C(c1cc(Br)ccc1F)CC(=O)N2 (configuration not stated) returned CDC25B CDK2 inh -2.5.
`O=C(Nc1ccc(N2CCOCC2)c(Cl)c1)c1cccs1` gave TAR Tat displ 1.7 and CDC25B CDK2 inh -1.6.
`COc1ccc(-c2nc3c([nH]2)c(=O)[nH]c(=O)n3C)cc1` gave TAR Tat displ -6.3 and CDC25B CDK2 inh -0.92.
Screening CCOC(=O)c1c(C)oc2c1cc(NS(=O)(=O)c1cccc([N+](=O)[O-])c1)c1ccccc12 returned CDC25B CDK2 inh -1.1.
O=C(Nc1ccccc1OCc1ccc(Cl)c(Cl)c1)c1ccco1 was read as CDC25B CDK2 inh -0.69.
Screening COC(=O)Nc1c(-c2ccccc2)nc2ccccn12 returned TAR Tat displ 1.3 and CDC25B CDK2 inh -1.5.
`Cc1csc(NC(=O)CCCC2=NS(=O)(=O)c3ccccc3N2)n1` gave CDC25B CDK2 inh -1.6.
For O=C(CCCn1c(=O)c2cccn2c2ccccc21)NCCN1CCOCC1 the results were TAR Tat displ 2.9.
O=C(CSc1ccccc1)Nc1nc2ccccc2o1 was read as TAR Tat displ -0.58.
For O=C(NCc1cccnc1)c1nc(-n2cnnc2)ccc1Br the results were TAR Tat displ 2.4.

From PubChem
